KCNQ2 inh: KCNQ2 potassium channel inhibitors, primary screen, cell-based, CHO-K1, FluxOR thallium flux, B-score (AID 2156); B-score at 10 µM; 1.1% of 310,000 active; 20 min; active compounds read low; only compounds with negative scores are shown here; some inactives read as strong as hits; O88943;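 active = fluorescence ratio B-score at most minus 3 library SDs, with starting brightness B-score within 2 library SDs, cut at about -5.5 in these data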
Target sequence (O88943 whole entry, looked up): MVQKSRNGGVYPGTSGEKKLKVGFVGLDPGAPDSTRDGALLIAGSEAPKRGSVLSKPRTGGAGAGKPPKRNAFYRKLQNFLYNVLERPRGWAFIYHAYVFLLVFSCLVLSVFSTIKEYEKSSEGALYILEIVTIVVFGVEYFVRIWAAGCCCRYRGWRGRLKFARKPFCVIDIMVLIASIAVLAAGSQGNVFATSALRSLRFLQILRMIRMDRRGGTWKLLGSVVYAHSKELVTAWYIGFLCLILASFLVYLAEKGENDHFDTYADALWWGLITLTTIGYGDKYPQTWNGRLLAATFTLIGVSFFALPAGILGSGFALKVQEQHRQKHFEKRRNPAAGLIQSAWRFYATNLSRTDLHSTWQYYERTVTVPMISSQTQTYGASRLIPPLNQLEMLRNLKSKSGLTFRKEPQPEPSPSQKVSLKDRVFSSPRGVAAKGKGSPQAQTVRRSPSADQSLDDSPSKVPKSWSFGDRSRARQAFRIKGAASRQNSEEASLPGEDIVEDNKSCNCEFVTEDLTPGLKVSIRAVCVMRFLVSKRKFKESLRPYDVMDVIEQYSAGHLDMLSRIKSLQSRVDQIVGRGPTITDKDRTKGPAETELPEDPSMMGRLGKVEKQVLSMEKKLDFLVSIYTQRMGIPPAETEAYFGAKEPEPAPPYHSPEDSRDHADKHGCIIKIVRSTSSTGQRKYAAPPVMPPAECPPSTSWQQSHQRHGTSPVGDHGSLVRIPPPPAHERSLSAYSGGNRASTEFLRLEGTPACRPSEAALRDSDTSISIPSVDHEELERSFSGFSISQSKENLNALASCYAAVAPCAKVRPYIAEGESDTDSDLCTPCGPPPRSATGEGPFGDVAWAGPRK
KCNQ2 inh baseline: second read-out of KCNQ2 inh, no call of its own (marks repeat the call); B-score; measured here: initial fluorescence intensity artifact check;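 brightness before thallium and not channel activity; 0 = typical well and far values either way flag optical interference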
Starred values were filed as active, the others as inactive; i = inactive.

| Structure | KCNQ2 inh | KCNQ2 inh baseline |
| --- | --- | --- |
| COc1ccc(N=Cc2oc3ccc4ccccc4c3c2O)cc1 | i | 1.2 |
| C/C(=N\NS(=O)(=O)c1ccc([N+](=O)[O-])cc1)c1ccc(NC(=O)c2ccco2)cc1 | i | -0.04 |
| CC(=O)NCCOC(=O)Nc1sc(=S)n(C)c1C | i | 2.1 |
| CCn1nc(NS(=O)(=O)c2ccc([N+](=O)[O-])cc2)c2cc3cc(C)ccc3nc21 | i | 1.2 |
| CN1CCN(c2ccc(S(=O)(=O)N3CCOCC3)cc2NC(=O)COc2ccc(F)cc2Cl)CC1 | i | 1.6 |
| CC(C)Oc1ccc(CNC2CCOC(C)(C)C2)cc1 (stereo not given) | i | -0.02 |
| COc1ccc(N2C(=O)CC(NNC(=O)c3cccnc3)C2=O)cc1 (stereo not given) | i | -0.67 |
| O=C(Nc1ccc(S(=O)(=O)Nc2nccs2)cc1)c1cnc(Cl)c(Cl)c1 | i | -1.1 |
| CCC(C)c1ccccc1N=Cc1ccc2c(c1)OCO2 (stereo not given) | i | 0.4 |
| CC(=O)Nc1cccc(C(=O)Nc2ccc(S(=O)(=O)NC3=NCCCCC3)cc2)c1 | i | -0.05 |
| Cc1cc(C)n(-c2nc3ccccc3nc2N2CCN(C(=O)c3ccc(F)cc3)CC2)n1 | i | -1.6 |
| N#Cc1c2n(c3c(=O)n(Cc4ccccc4)cnc13)CCCC2 | i | 1 |
| CCn1c(SCC(=O)NC2CCCC2)nnc1-c1ccoc1C | i | -0.95 |
| CC(C)(C)C(=O)N1CCN(c2ccc([N+](=O)[O-])cc2Cl)CC1 | i | 2.5 |
| Cc1noc(C)c1COc1cccc(C(=O)Oc2ccc3c(c2)OCO3)c1 | i | -1.6 |
| Cc1nc(-c2ccc3c(c2)OCO3)cs1 | i | -1.6 |
| COc1nc(-c2cccs2)cc(-c2ccc(C)cc2)c1C#N | i | 2.1 |
| COc1ccc(-c2csc3ncnc(N4CCN(c5ccccc5Cl)CC4)c23)cc1 | i | -0.24 |
| CCc1nnc(NC(=O)c2ccc(S(=O)(=O)N(C)c3ccccc3)cc2)o1 | i | -0.92 |
| Cc1ccc(CNC(=O)C2CCN(S(=O)(=O)c3c(C)noc3/C=C/N(C)C)CC2)cc1 | i | 1.3 |
| Cc1cc(C)c([N+](=O)[O-])cc1NCC(=O)N1CCN(c2ccccc2)CC1 | i | -0.79 |
| CC(C)(C)NC(=O)C(c1ccncc1)N(Cc1ccco1)C(=O)c1ccc(-c2ccccc2)[nH]1 (stereo not given) | i | 0.33 |
| CCOC(=O)C1=C(C)NC(C)=C(C(=O)OCC)C1 | i | 0.02 |
| CC(=O)Nc1ccc2c(c1)CCCC2=O | i | 0.11 |
| CCC(NC(=O)C1(C)CC1(Br)Br)c1ccc(C)cc1 (stereo not given) | i | -0.68 |
| COc1ccc(CCn2c(=S)[nH]c3cc(C(=O)N4CCOCC4)ccc3c2=O)cc1OC | i | -2 |
| CCOc1ccccc1NC(=O)C(OC(=O)c1ccc(CC)cc1)c1ccccc1 (stereo not given) | -6.4* | -0.01* |
| CCC(CC)C(=O)Nc1nnc(S(=O)(=O)N2CCc3ccccc32)s1 | i | 0.88 |
| CC(=O)NC1C(=O)N(CCN2CCOCC2)c2ccc(Br)cc21 (stereo not given) | i | 0.56 |
| CCOC(=O)c1c(NC(=O)Cn2cnc([N+](=O)[O-])n2)sc2c1CCCC2 | i | -1.3 |
| Cc1ccc(C(=O)Nc2ccc(Br)c(C(F)(F)F)c2)cc1 | i | 4.7 |
| CCCCOC(=O)c1nc[nH]c1C(=O)OCCCC | i | -0.09 |
| CC(=O)Nc1ccc(S(=O)(=O)N(C)CC(=O)OCC(=O)N2CCCC2=O)cc1 | i | 0.05 |
| Cc1cc(C)nc(SCc2nnc(SCC(=O)Nc3ccc(C)c(C)c3)n2Cc2ccco2)n1 | i | -0.75 |
| CCOC(=O)C1=CN(c2cccc(F)c2)C=C(C(=O)OCC)C1c1cc(OC)c(O)c([N+](=O)[O-])c1 | i | -0.04 |
| C/C(=N\NC(=O)c1ccccc1)c1ccc(-n2ccnc2)cc1 | i | -1.1 |
| CCC(C)NC(=O)c1ccccc1-c1nc2ccccc2[nH]1 (stereo not given) | i | 0.09 |
| COc1cccc(C(=O)N2CCC(N3CC(C)OC(C)C3)CC2)c1 (stereo not given) | i | 2.9 |
| CCOC(=O)c1c(N)sc(C(=O)Nc2ccccc2F)c1C | i | -0.46 |
| COc1ccc2[nH]c3c(N4CCN(Cc5ccc6c(c5)OCO6)CC4)ncnc3c2c1 | i | -0.5 |
| O=S(=O)(Nc1nc2ccccc2nc1NCC1CCCO1)c1cccc(Cl)c1 (stereo not given) | i | -1.9 |
| COc1ccc(NC(=O)c2cc3cccc(OC)c3oc2=Nc2ccc(C(=O)O)cc2)cc1OC | i | 1.7 |
| COc1ccc(S(=O)(=O)Nc2ccc(S(=O)(=O)Nc3cc(C)nc(C)n3)cc2)cc1OC | i | -1.5 |
| CCOc1cc(N2CCOCC2)c(OCC)cc1NC(=O)CSc1ncn[nH]1 | i | 0.87 |
| Cc1cccc(-c2c3c(=O)n(C)c(=O)n(C)c3cn2-c2ccc(O)cc2)c1 | i | -0.96 |
| COc1ccc(/C=c2\s/c(=C/C(=O)c3ccc(C)cc3)[nH]c2=O)cc1OC | i | 1.1 |
| c1ccc(Cn2c(CNc3nc4ccccc4n3CCN3CCCCC3)nc3ccccc32)cc1 | -7.3* | 0.62* |
| CC(NCc1nc2ccccc2n1C)C12CC3CC(CC(C3)C1)C2 (stereo not given) | i | 0.99 |
| Cc1cccc(Oc2coc3cc(OC(=O)c4cncc(Br)c4)ccc3c2=O)c1 | i | -0.3 |
| CCOC(=O)C1CCCN(CCC(=O)Nc2ccccc2C)C1 (stereo not given) | i | 0.59 |
| Cc1ccc(NC(=O)C2CCCN(S(=O)(=O)c3cnc[nH]3)C2)c(Br)c1 (stereo not given) | i | -0.1 |
| COC(=O)CSc1n[nH]c(=S)s1 | i | 0.47 |
| CNC(=O)c1c(C)noc1C | i | 1.5 |
| CC(=O)NC1C(OCc2ccccc2)OC(COC(C)=O)C(OC(C)=O)C1OC(C)=O (stereo not given) | i | 0.61 |
| CCCCN(C(=O)c1ccccc1F)c1c(N)n(CCC)c(=O)[nH]c1=O | i | 2.1 |
| Cc1ccc(NC(=O)N2CCC(NC(=O)c3ccco3)CC2)cc1 | i | 1.6 |
| CCc1nc2n(n1)C(O)c1cc([N+](=O)[O-])ccc1S2 (stereo not given) | i | 2.5 |
| Cc1nn(C)c(C)c1/C=N/N=C1\CCC2C3CCc4cc(O)ccc4C3CCC12C (stereo not given) | i | -0.28 |
| CCOc1ccc(NC(=O)CSc2nncn2C)cc1 | i | 2.6 |
| O=C1OC(Nc2nc(-c3ccc(F)cc3)cs2)c2ccccc21 (stereo not given) | i | 0.34 |

Some of the entries so far, with two lines to a compound.
Order of results – KCNQ2 inh | KCNQ2 inh baseline
> CCC(C)NC(=O)c1ccccc1-c1nc2ccccc2[nH]1 (stereo not given)
    i | 0.09
> COc1cccc(C(=O)N2CCC(N3CC(C)OC(C)C3)CC2)c1 (stereo not given)
    i | 2.9
> CCOC(=O)c1c(N)sc(C(=O)Nc2ccccc2F)c1C
    i | -0.46
> COc1ccc2[nH]c3c(N4CCN(Cc5ccc6c(c5)OCO6)CC4)ncnc3c2c1
    i | -0.5

Additional compounds.
| Structure | KCNQ2 inh | KCNQ2 inh baseline |
| --- | --- | --- |
| O=C(N1CCN(c2cccc(Cl)c2)CC1)C1(c2cccs2)CCOCC1 | i | -0.18 |
| O=C(NCc1ccccc1Cl)c1ccc2nnsc2c1 | i | 0.24 |
| NNC(=O)CCc1nc2ccc(O)cc2[nH]1 | i | 1.1 |
| CS(=O)(=O)Cc1cccc(C(=O)NN(c2ccccc2)c2ccccc2)c1 | i | 0.11 |
| Cc1c(O)ccc(-c2[nH]ncc2-c2nc3ccccc3s2)c1O | i | 0.45 |
| Cc1sc2ncnc(N3CCC(C(=O)N(C)CC(=O)Nc4ccc(Cl)c(C(F)(F)F)c4)CC3)c2c1C | i | 2.5 |
| CCCCn1c(CN2CCN(C(=O)OCC)CC2)nc2c1c(=O)[nH]c(=O)n2C | i | -2.8 |
| COC(=O)C1CN(S(=O)(=O)c2ccc(C)cc2)CCN1S(=O)(=O)c1ccc(C)cc1 (stereo not given) | i | -1.5 |
| O=C(c1cnn(C(=O)c2cccc(S(=O)(=O)N3CCOCC3)c2)c1)c1ccccc1O | i | 0.08 |
| c1ccc(Cc2nnc3sc(-c4ccc5c(c4)OCCO5)nn23)cc1 | i | -0.65 |
| CCOC(=O)c1sc(=NC(=O)/C=C/c2ccccc2)n(C)c1C | i | 2.1 |
| Cc1c(C(=O)NCC2CCCO2)cccc1[N+](=O)[O-] (stereo not given) | i | 1.2 |
| Cc1cccc(NC(=O)C23CCC(C)(/C(=N/O)C2)C3(C)C)c1 (stereo not given) | i | 0.89 |
| CCOC(=O)C(NC(=O)NCc1cccc(C(F)(F)F)c1)(OCC)C(F)(F)F (stereo not given) | i | -0.05 |
| O=C(NCC(=O)N(CC1CCCO1)C1(C(=O)NC2CCCCC2)CCCCC1)c1ccccc1 (stereo not given) | i | 0.58 |
| Cc1ccc(C(=O)Nc2c(C)n(C)n(-c3ccccc3)c2=O)cc1 | i | -0.75 |
| COc1ccc(N2CCN(C(c3ccc4ncccc4c3)c3nnnn3C(C)C)CC2)cc1 (stereo not given) | i | 1.7 |
| O=C(NCCC1=CCCCC1)c1ccc(=O)oc1 | i | 1.5 |
| O=C(/C=C/c1ccco1)NC(=S)Nc1cc(C(F)(F)F)ccc1N1CCOCC1 | -7.3* | -0.3* |
| Cc1cccc(NC(=O)c2cc3c(=O)n4ccccc4nc3n(CC(C)C)c2=N)c1 | i | 0.02 |
| COc1cc(-c2nnc(SCC(=O)O)n2-c2ccccc2)cc(OC)c1OC | i | 1.5 |
| COc1cc(C(CC(=O)N2CCN(c3ccccc3)CC2)c2c(OC)cc(OC)c3ccc(=O)oc23)cc(OC)c1OC (stereo not given) | i | -1.2 |
| OCCCNc1cc(-c2ccnc(Nc3cccc(Cl)c3)n2)ccn1 | i | -0.81 |
| O=C(CN(C(=O)Cn1nnc(-c2ccccc2F)n1)c1cccc2c1CCCC2)NCc1ccccc1 | i | -0.33 |
| CCCCCn1c(C(Cc2ccccc2)NC(C)=O)nc2ccccc21 (stereo not given) | i | 0.26 |
| C=CCC1(CC=C)CCCN1C(=O)CC1C(=O)NCCN1Cc1cccc(OC)c1 (stereo not given) | i | 0.01 |
| Cc1cn(S(=O)(=O)c2ccc(Br)cc2)cn1 | i | 1.9 |
| Cc1ccc(-c2nc3ccccc3nc2-c2ccccc2)cc1 | i | 0.64 |
| CC1(C)CC(=O)c2cnn(-c3nc4ccccc4[nH]3)c2C1 | i | -0.89 |
| CCOC(=O)c1cc(C#N)c(N2CCCNCC2)nc1C(F)(F)F | i | -0.14 |

Single records (already shown).
CS(=O)(=O)Cc1cccc(C(=O)NN(c2ccccc2)c2ccccc2)c1 is listed as KCNQ2 inh: i; KCNQ2 inh baseline: 0.11
Cc1c(C(=O)NCC2CCCO2)cccc1[N+](=O)[O-] (stereo not given) is listed as KCNQ2 inh: i; KCNQ2 inh baseline: 1.2
C=CCC1(CC=C)CCCN1C(=O)CC1C(=O)NCCN1Cc1cccc(OC)c1 (stereo not given) is listed as KCNQ2 inh: i; KCNQ2 inh baseline: 0.01

Remaining list, next part.
| Structure | KCNQ2 inh | KCNQ2 inh baseline |
| --- | --- | --- |
| O=C(Cc1cccs1)N/N=C/C=C\c1ccco1 | i | 0.18 |
| Cc1cc2n(n1)C(c1ccccc1)Nc1ccccc1-2 (stereo not given) | i | -0.33 |
| O=C(NCCCn1ccnc1)C(=O)NCC1OCCN1S(=O)(=O)c1ccc2c(c1)OCCO2 (stereo not given) | i | 2.1 |
| COc1ccc(NC(=O)c2oc3ccc(S(=O)(=O)N4CCC5(CC4)OCCO5)cc3c2C)cc1 | i | -3.1 |
| COc1cc(OC)cc(C(=O)N[C@H](C(=O)OCC(=O)Nc2ccc(F)c(F)c2F)C(C)C)c1 | i | -0.07 |
| Cc1ccc(NS(=O)(=O)c2ccc3c(c2)CC(=O)N3)cc1C | i | 1.2 |
| O=C(O)c1ccc(CSc2nnc(-c3ccccc3Br)o2)cc1 | i | 0.89 |
| COC(=O)C(NNc1ccccc1)(NC(=O)c1ccc(F)cc1)C(F)(F)F (stereo not given) | i | 1.4 |
| COc1ccc(S(=O)(=O)N(CCCN2CCOCC2)Cc2ccc(OC)c(OC)c2)cc1 | i | 0.04 |
| Cc1ccccc1NC(=O)CC1SCCNC1=O (stereo not given) | i | 1 |
| N#CCNC1CC(=O)N(c2ccccc2)C1=O (stereo not given) | i | 0.01 |
| COc1cc(OC)c(N(C)S(=O)(=O)c2cccc(C(=O)Nc3nnc(C4CC4)s3)c2)cc1Cl | i | 1.6 |
| O=C(C1=C(O)C(=O)N(Cc2ccco2)C1c1ccccc1)c1cccs1 (stereo not given) | i | -0.81 |
| O=C(NCCCN1CCOCC1)c1ccc2c(=O)n(Cc3ccccc3)c(=S)[nH]c2c1 | i | -1.9 |
| COc1ccc(C(CCN(Cc2ccc(OC)c(OC)c2)C(=O)CCl)c2ccccc2)cc1 (stereo not given) | i | -0.39 |
| Cc1ccc(C)c(NC(=O)CS(=O)(=O)c2cn(C)c3ccccc23)c1 | i | 0.31 |
| COc1cc(/C=N/NC(=O)CSc2nc3ccccc3n2C)cc(OC)c1OC | i | 0.84 |
| CC[N+](C)(CC)CCC(c1ccccc1)C1CCCCC1 (stereo not given) | i | -1 |
| CC1(C)Cc2ccccc2-c2nnc(-c3cccc(O)c3)n21 | i | -0.1 |
| Cc1ccc(NS(=O)(=O)c2ccc(Cl)c(C(=O)Nc3cccc(C(=O)O)c3)c2)cc1 | i | -0.04 |
| CN(C)S(=O)(=O)c1ccc(S(=O)(=O)N(CC(=O)Nc2ccccc2)CC2CCCO2)cc1 (stereo not given) | i | 0.82 |
| Cn1c(=O)c2c(ncn2CCCc2ccccc2)n(C)c1=O | i | 1.4 |
| CCOC(=O)c1sc(NC(=O)CCCCl)nc1C | i | 1.2 |
| Cc1oncc1C(=O)Nc1cccc2ccccc12 | i | 3.6 |
| Cc1ccccc1N1CCN(C2CCCN(C(=O)c3cnsn3)C2)CC1 (stereo not given) | i | -1.1 |

Bioassay records (PubChem)

Only part of the results is shown (hit frequency here may not be typical).
